Source: PubChem BioAssay
2A StopGo = FMDV 2A StopGo reporter, luciferase signal; human cells with a luciferase reporter of 2A StopGo recoding; control for the full effect not named in the record; Potency, µM (titrated, usually from 57.9 µM), without a hit: at the highest dose signal change, negative = less light; 1.2% of 410,000 active; active = well fitted falling curve with a large enough effect; inconclusive = small, poorly fitted or top-dose-only effect; inactive = no such curve, though single readings can be large or run the other way; tested in HEK293T cells; note: nearly all actives have a fitted effect of over 45% in size; luciferase light after 4 h
RE007 growth inh = less growth of the S. pombe RE007 Vpr strain; S. pombe RE007 Vpr strain, BacTiter-Glo ATP luminescence, 24 h; control for the full effect not named in the record; Potency, µM (highest dose often 92.2 µM), inactives show at the highest dose activity change, negative = less growth; 0.21% of 360,000 active; active = well fitted falling curve with a large enough effect; inconclusive = small, poorly fitted or top-dose-only effect; inactive = no such curve, though single readings can be large or run the other way;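 note: nearly all actives have a fitted effect of over 50% in size; the assay follows cell death caused by Vpr and the record does not say whether a fall means rescue or toxicity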
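Fission yeast strain RE007, carrying one chromosomally integrated HIV-1 vpr copy, was seeded at OD 0.01 in PMG+AL medium with 23 nL pinned compound. After 24 h at 30 °C and 99% humidity, viability was read by BacTiter-Glo luminescence.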
Active calls of the source: *; [ ] = remark or other dose. % is set by controls: 0 for no effect and ±100 for the full control effect; potency is the fitted concentration of half-maximal effect. Some of the compounds tested; count on the stated rates, not on these rows.

Screening COc1cc(C(=O)N2CCCC(C)(C(=O)NS(=O)(=O)C3CC3)C2)cc(OC)c1OC (stereo not given) returned 2A StopGo -7% and RE007 growth inh -17%[18.4 µM].
For O=[N+]([O-])c1ccc(S(=O)(=O)N2CCN(c3ccccn3)CC2)cc1 the results were 2A StopGo 16% and RE007 growth inh -20%.
CCCCN1C(=O)C(CC(=O)NCc2ccco2)CC(C(=O)N(CC)CC)=C1C (stereo not given) was read as 2A StopGo -24% and RE007 growth inh -2%.
`COCCNc1ncnc2c1ncn2[C@H]1CN(CCc2ccccc2)C[C@@H](CO)O1` gave 2A StopGo -27% and RE007 growth inh 6%.
For CCN1C[C@@]2(COC)C3[C@@H](OC)[C@H]4[C@@H]1[C@@]3(C1C[C@H]3[C@H](O)C1[C@]4(O)C[C@H]3OC)[C@@H](OC)C[C@H]2O (stereo not given in full) the results were 2A StopGo -13% and RE007 growth inh 4%.
For COc1ccc(N2CCN(C(=O)Oc3ccc([N+](=O)[O-])cc3)CC2)cc1 the results were 2A StopGo inconclusive and RE007 growth inh 2%.
Screening CCc1c(O)nc(SCC(=O)Nc2ccc(Cl)cc2)n(-c2ccccc2)c1=O returned 2A StopGo 16% and RE007 growth inh 7%.
Screening O=C(O)C1C2CCC1C(O)C2 (stereo not given) returned 2A StopGo -13% and RE007 growth inh -3%.
C[C@H]1CN([C@@H](C)CO)S(=O)(=O)c2ccc(-c3ccccc3)cc2O[C@H]1CN(C)C(=O)C1CCC1 was read as 2A StopGo 11% and RE007 growth inh 2%.
For Fc1cccc(Cc2c(-c3ccc(Cl)cc3)nc3ccc(Br)cn23)c1 the results were 2A StopGo -6% and RE007 growth inh -12%.
OC[C@@H]1CN(CCN2CCOCC2)C[C@H](n2cnc3c(Nc4ccccc4)ncnc32)O1 was read as 2A StopGo -8% and RE007 growth inh -1%.
For COc1ccccc1N1CCN(c2ccc3c(c2)S(=O)(=O)c2cccc(C(=O)NCc4cccc(F)c4)c2C3=O)CC1 the results were 2A StopGo -23% and RE007 growth inh -26%.
Screening CCCCN1C(=O)C(CC(=O)NCC2CCCCC2)CC(C(=O)N(C(C)C)C(C)C)=C1C (stereo not given) returned 2A StopGo -11% and RE007 growth inh 8%.
`Cc1ccsc1CNC(=O)C1(C)CCN1C(C)C` (stereo not given) gave 2A StopGo -5% and RE007 growth inh 0%[18.4 µM].
`CCN(CCc1ccccc1)c1ccc2c(c1)C1CC2CCN1Cc1ccccc1` (stereo not given) gave 2A StopGo inconclusive and RE007 growth inh 5%.
COc1ccc(C#Cc2ccc3c(c2)O[C@H](CN(C)S(=O)(=O)c2ccccc2F)[C@H](C)CN([C@H](C)CO)S3(=O)=O)cc1 was read as 2A StopGo 19% and RE007 growth inh 12%.
`O=C(NCc1ccco1)c1ccc2sc([C@H]3C[C@H](O)[C@@H](CO)O3)nc2c1` gave 2A StopGo 10% and RE007 growth inh 14%.
CC(C)CNC(=O)C1(C)CCCN1C(=O)c1ccncc1 (stereo not given) was read as 2A StopGo -23% and RE007 growth inh -1%[18.4 µM].
For COC(=O)C1=C(c2ccccc2)C[C@@H]2CC[C@H]1N2C(=O)NC1CCCCC1 the results were 2A StopGo -16% and RE007 growth inh -13%.
For COc1ccc(C(C(=O)Nc2c(C)cccc2C)n2c(=O)c(-c3ccco3)nc3ccccc32)cc1 (stereo not given) the results were 2A StopGo -10% and RE007 growth inh inconclusive.
For CC(C)(C)n1nnnc1C(c1ccccc1)N1CCN(c2ccc(C(F)(F)F)cn2)CC1 (stereo not given) the results were 2A StopGo inconclusive and RE007 growth inh 0%.
`C#CCCC[C@@H]1OC(=O)CNC(=O)C([C@@H](C)CC)NC(=O)[C@@H]2CCCN2C(=O)C([C@@H](C)CC)OC(=O)[C@H](Cc2ccccc2)N(C)C(=O)[C@H](C(C)C)NC(=O)C1(C)C` (stereo not given in full) gave 2A StopGo -24% and RE007 growth inh 8%.
Screening CCCc1c(-c2ccccc2Br)ncn1Cc1ccccc1OC returned 2A StopGo inconclusive and RE007 growth inh inconclusive.
For CC(C)C(=O)N1CCC1(C)C(=O)Nc1nc2ccccc2[nH]1 (stereo not given) the results were 2A StopGo -2% and RE007 growth inh -4%.
CCNC(=O)C1(C)CCCN(Cc2cc3ccccc3o2)C1 (stereo not given) was read as 2A StopGo -15% and RE007 growth inh -10%.
Screening Brc1cnc2ccccc2c1N1CCCCC1 returned 2A StopGo inconclusive and RE007 growth inh -3%.
For CCC(=O)[C@@H](C)[C@@H](OC(C)=O)[C@H](C)C[C@@H](C)[C@H]1OC(=O)C[C@@]2(O)CC=C(C)C(O2)C(C)=CCCC[C@H](O[C@H]2C[C@@H](OC(N)=O)[C@H](OC(C)=O)[C@@H](C)O2)C=C[C@H](C)C[C@H]1C the results were 2A StopGo -29% and RE007 growth inh 12%.
Screening CC(C)OC(=O)N(C)C[C@H]1OCc2cn(nn2)CCCC(=O)N([C@H](C)CO)C[C@@H]1C returned 2A StopGo 0% and RE007 growth inh -1%.
`CCC1Nc2ncnc(N3CCc4ccccc4C3)c2N(Cc2ccc(Br)cc2)C1=O` (stereo not given) gave 2A StopGo -29% and RE007 growth inh -14%.
Screening CCOC(=O)[C@]12CCCC=C1N(Cc1ccccc1)C(=O)[C@H](CC(=O)NCC1CCCCC1)C2 returned 2A StopGo -4% and RE007 growth inh -17%.
O=C(C[C@H]1CC[C@@H]2[C@H](COC[C@H](O)CN2Cc2nccs2)O1)NCc1ccccc1Cl was read as 2A StopGo 1% and RE007 growth inh 5%.
c1ccc(-c2ccc3ncccc3n2)cc1 was read as 2A StopGo 27% and RE007 growth inh -5%.
Cc1nc2n[nH]c(N)c2nc1C was read as 2A StopGo -3% and RE007 growth inh -6%.
`c1ccc(CN2CC[C@@H](Nc3nccn4ccnc34)C2)cc1` gave 2A StopGo -7% and RE007 growth inh -20%.
CC1(C)CC(=O)C=C(c2ccc(COC(=O)Cc3ccccc3)cc2)C1=O was read as 2A StopGo -18% and RE007 growth inh 2%.
`C[C@H]1CN([C@@H](C)CO)S(=O)(=O)c2ccc(Br)cc2O[C@H]1CN(C)C(=O)c1cccc(F)c1` gave 2A StopGo -9% and RE007 growth inh -19%.
`CCc1nc2c(OCCOC)cccn2c1N(C)C(=O)c1ccc(C)cc1` gave 2A StopGo -4% and RE007 growth inh -17%.
For CC1(C)CC(=O)C=C(c2n[nH]nc2C2CC2)C1 the results were 2A StopGo -24% and RE007 growth inh -23%.
Cc1ccc(S(=O)(=O)NC(=O)C2(C)CCN2C(=O)Cc2cc(F)ccc2F)nc1 (stereo not given) was read as 2A StopGo -17% and RE007 growth inh -3%[18.4 µM].
`Cc1ccc(P(=O)(c2ccc(C)cc2)[C@@H](NC(c2ccccc2)c2ccccc2)c2ccccc2)cc1` gave 2A StopGo 8% and RE007 growth inh -15%.
Screening CS(=O)(=O)c1ccc([C@@H](O)[C@@H](CO)NC(=O)C(Cl)Cl)cc1 returned 2A StopGo -24% and RE007 growth inh -8%.
Screening N#CC1c2ccccc2-c2ccccc2N1C(=O)c1ccccc1 (stereo not given) returned 2A StopGo -10% and RE007 growth inh -2%.
`CC(=O)CC1c2cc(F)ccc2C=C(c2ccsc2)N1c1ccc(-c2ccc(C(N)=O)cc2)cc1` (stereo not given) gave 2A StopGo inconclusive and RE007 growth inh 18%.
For O=C(NN=Cc1cccc(O)c1O)c1ccccc1 the results were 2A StopGo 12% and RE007 growth inh inconclusive.
`CCn1c(SCC(=O)N2CCCC2=O)nc2ccccc21` gave 2A StopGo -6% and RE007 growth inh 9%.
For Cc1cc(C)cc(Cn2c3ccc(NC(=O)NCc4ccc(F)cc4)cc3c(=O)n2C)c1 the results were 2A StopGo 63%[activator] and RE007 growth inh 3%.
`Cc1ccc(-c2cc3nc(NCCOc4ccccc4Cl)n(C)c(=O)c3s2)cc1` gave 2A StopGo 9% and RE007 growth inh 5%.
For Nc1c(OS(=O)(=O)c2ccccc2)cccc1OS(=O)(=O)c1ccccc1 the results were 2A StopGo 64%[activator] and RE007 growth inh -14%.
For CC(=O)Oc1ccccc1Cn1c(C)c(C(=O)NCc2cccc([N+](=O)[O-])c2)sc1=O the results were 2A StopGo -5% and RE007 growth inh 6%[18.4 µM].
For COc1cc(C(=O)NC2CCN(C)CC2)ccc1Nc1ncc2c(n1)N(C1CCCC1)CCC(=O)N2C(C)C the results were 2A StopGo -1% and RE007 growth inh 3%.
Screening O=C(NC1CCCCC1)C(c1ccc(C(F)(F)F)cc1)n1c(=O)c(-c2cc3ccccc3[nH]2)nc2ccccc21 (stereo not given) returned 2A StopGo -11% and RE007 growth inh 1%.
Screening CC(=O)Nc1ccc(-c2ccnc3c2CC(C(=O)NCc2ccccc2)O3)cc1 (stereo not given) returned 2A StopGo -20% and RE007 growth inh -7%[18.4 µM].
`CCC1OC(C2CC2)CC2=C1C(=O)OC(C)(C)O2` (stereo not given) gave 2A StopGo -23% and RE007 growth inh 3%.
`CCCNC(=O)C1(C)CCCN(C(=O)COc2ccc(Cl)cc2Cl)C1` (stereo not given) gave 2A StopGo -25% and RE007 growth inh -3%.
`COc1ccc(-c2cc3nc(C)cc(N4CCN(C(=O)c5cccnc5)CC4)n3n2)cc1` gave 2A StopGo -7% and RE007 growth inh -7%.
Screening CC(NC(=O)c1cccs1)c1ccccc1 (stereo not given) returned 2A StopGo -10% and RE007 growth inh 8%.
`CCCCN(C=O)c1c(CC)nc2c(OCCC3CCCCC3)cccn12` gave 2A StopGo inconclusive and RE007 growth inh -4%.
Brc1cccc(C=Nc2cccc3ncccc23)c1 was read as 2A StopGo -9% and RE007 growth inh -14%.
For CC(C)CC#Cc1ccc2c(c1)O[C@H](CN(C)C(=O)Cc1ccncc1)[C@H](C)CN([C@H](C)CO)S2(=O)=O the results were 2A StopGo 79%[activator] and RE007 growth inh 21%.
For O=C1c2ccccc2S(=O)(=O)c2cc(N3CCN(c4ccccn4)CC3)ccc21 the results were 2A StopGo -30% and RE007 growth inh 49%.
`COc1ccc(-c2ccc3c(c2)[C@@H]2C[C@H]4[C@@H](C(=O)N2CC3)[C@H](C)ON4C)cc1` gave 2A StopGo -20% and RE007 growth inh 3%.
`COc1ccc(C(C)=O)cc1CN1C(=O)C(Cc2ccccc2)ON=C1c1ncccc1C` (stereo not given) gave 2A StopGo -7% and RE007 growth inh 5%[18.4 µM].
CCC(CC)C(C(=O)NCc1ccccc1)N1CCN(CCN2CCOCC2)CC1 (stereo not given) was read as 2A StopGo -5% and RE007 growth inh -9%.
For COCCNC(=O)c1ccc(N2CC3CC(C2)c2cccc(=O)n2C3)c(NC(=O)c2ccccc2Cl)c1 (stereo not given) the results were 2A StopGo -1% and RE007 growth inh -4%.
Screening COc1ccc(-c2noc(CCC(=O)Nc3cccc(C(=O)NC4CC4)c3)n2)cc1OC returned 2A StopGo -1% and RE007 growth inh 4%.
For C[C@@H]1CN([C@@H](C)CO)C(=O)c2cc(C#Cc3cccc(F)c3)cnc2O[C@@H]1CN(C)CC1CCOCC1 the results were 2A StopGo -13% and RE007 growth inh 31%.
For COc1ccc(CN2[C@@H](CC(=O)O)c3ccccc3S2(=O)=O)cc1 the results were 2A StopGo -21% and RE007 growth inh 6%.
For CCN1C(=O)[C@H]2[C@@H](c3ccc(C(F)(F)F)cc3)N[C@]3(CCCN(Cc4ccc(C)cc4)C3=O)[C@H]2C1=O the results were 2A StopGo -9% and RE007 growth inh -2%.
For OC(c1ccccc1)c1nc(-c2cccc(C(F)(F)F)c2)cs1 (stereo not given) the results were 2A StopGo 11% and RE007 growth inh 10%.
For COC(=O)[C@]12CCCCC=C1N(CCc1ccc(OC)c(OC)c1)C(=O)[C@H](CC(=O)N1CCCC1)C2 the results were 2A StopGo -10% and RE007 growth inh -6%.

Some of these compounds in order of length of the SMILES, rising.
CCC(CC)C(C(=O)NCc1ccccc1)N1CCN(CCN2CCOCC2)CC1 (stereo not given) was read as 2A StopGo -5% and RE007 growth inh -9%.
For COc1ccc(CN2[C@@H](CC(=O)O)c3ccccc3S2(=O)=O)cc1 the results were 2A StopGo -21% and RE007 growth inh 6%.
Screening COc1ccc(-c2noc(CCC(=O)Nc3cccc(C(=O)NC4CC4)c3)n2)cc1OC returned 2A StopGo -1% and RE007 growth inh 4%.
For CCN1C(=O)[C@H]2[C@@H](c3ccc(C(F)(F)F)cc3)N[C@]3(CCCN(Cc4ccc(C)cc4)C3=O)[C@H]2C1=O the results were 2A StopGo -9% and RE007 growth inh -2%.

Quoted at random: 4 compounds from above
For COC(=O)[C@]12CCCCC=C1N(CCc1ccc(OC)c(OC)c1)C(=O)[C@H](CC(=O)N1CCCC1)C2 the results were 2A StopGo -10% and RE007 growth inh -6%.
`COc1ccc(-c2ccc3c(c2)[C@@H]2C[C@H]4[C@@H](C(=O)N2CC3)[C@H](C)ON4C)cc1` gave 2A StopGo -20% and RE007 growth inh 3%.
For C[C@@H]1CN([C@@H](C)CO)C(=O)c2cc(C#Cc3cccc(F)c3)cnc2O[C@@H]1CN(C)CC1CCOCC1 the results were 2A StopGo -13% and RE007 growth inh 31%.
For COc1ccc(CN2[C@@H](CC(=O)O)c3ccccc3S2(=O)=O)cc1 the results were 2A StopGo -21% and RE007 growth inh 6%.
